2A firefly: FMDV 2A StopGo reporter, firefly signal | HEK cells with a luciferase reporter of 2A StopGo recoding | Potency, µM (doses to about 57.5 µM), for inactives: at the top dose signal change, negative = less light | actives 0.23% (n = 120,000); active = well fitted falling curve with a large enough effect; inconclusive = small, poorly fitted or top-dose-only effect; inactive = no such curve, though single readings can be large or run the other way; also: nearly all actives have a fitted effect of over 60% in size; overnight with compound
2A Renilla: FMDV 2A StopGo reporter, Renilla signal; HEK cells with a luciferase reporter of 2A StopGo recoding; Potency, µM (highest dose often 57.5 µM), for the others: top-dose signal change, negative = less light; actives 0.32% (n = 120,000); active means well fitted falling curve with a large enough effect; inconclusive means small, poorly fitted or top-dose-only effect; inactive means no such curve, though single readings can be large or run the other way; also: nearly all actives have a fitted effect of over 55% in size; overnight with compound
Active calls of the source: *; ? = inconclusive; & = joins results of further samples; [ ] = another dose, or the depositor's remark. % is scaled to controls: 0 for no effect and ±100 for the full control effect; potency is read from the fitted curve at half-maximal effect. A portion of the library. The share of hits here may be higher or lower than overall.

SMILES	2A firefly	2A Renilla
CC1=C(c2ccc(Cl)cc2)S(=O)(=O)N=C1N1CCC(C(=O)NCCc2ccco2)CC1	-13%	35%[activator]
COc1ccc(OCC(O)Cn2c(N(C)C)nc3c2c(=O)n(C)c(=O)n3C)cc1 (centres undefined)	-20%	-19%
COc1ccccc1NC(=O)N(Cc1ccco1)C1CCN(C(C)=O)CC1	-13%	-12%
Cc1ccccc1CCNC(=O)C1CCN(S(=O)(=O)c2ccc3c(ccn3C)c2)CC1	-20%	12%
COc1ccc(NS(=O)(=O)c2cc(NC(=O)c3cccc(-n4cccc4)c3)ccc2OC)cc1	0%	193%[activator]
CCOC(=O)c1ccccc1NC(=O)CSc1cn(CC(=O)N2CCCCC2)c2ccccc12	-5%	-9%
COc1ccc(NC(=O)Cn2cnc3c(oc4ccccc43)c2=O)cc1OC	15%	4%
CC(CNC(C)(C)CO)c1ccccc1 (centres undefined)	0%	6%
Cc1c(Cl)cccc1-n1nnc(C(=O)N(C)c2ccccc2)c1C	15%	3%
O=C(CSc1nnc(Nc2ccccc2)s1)c1ccc(Cl)s1	63%[activator]	58%[activator]
Cc1ccc(Nc2nc(-c3ccccc3)nc3ccccc23)cc1	12%	7%
CCN1CCC(N(Cc2ccc3c(c2)OCO3)C(=O)Nc2ccc(Br)c(C)c2)CC1	16%	7%
O=C(OCc1ccc(F)cc1Cl)c1ccc(C2Nc3ccccc3S(=O)(=O)N2)cc1 (centres undefined)	0%	22%
COc1ccc(-n2cc(-c3ccccc3)c3c(N4CCCC(C)C4)ncnc32)cc1 (centres undefined)	-18%	-6%
COc1ccc2oc(=O)c(-c3cn4cccc(C)c4n3)cc2c1	71%[activator]	-1%
COc1ccc(-n2nc3ccc(NC(=O)c4ccc(-c5cc(Cl)ccc5Cl)o4)cc3n2)cc1	-1%	0%
Cc1cc(C(C)(C)C)cc(C)c1S(=O)(=O)N1CCN(Cc2nc3ccccc3c(=O)[nH]2)CC1	?	?
Nc1cccc2cccc(S(=O)(=O)O)c12	-4%	-8%
O=C(Nc1cccc(-c2nc3ccccc3o2)c1)c1ccc(Br)o1	29%	-8%
COc1ccccc1NC(=O)C(C)Sc1ncnc2ccccc12 (centres undefined)	8%	-3%
Cc1nc(N2CCCC2)cc(N2CCN(C(=O)c3ccccc3C(F)(F)F)CC2)n1	0%	23%
CCOC(=O)CNC(=O)NCc1cccn1Cc1cc(C)ccc1C	4%	4%
O=C(NCC(O)CO)c1c(I)c(C(=O)NCC(O)CO)c(I)c(N(CCO)C(=O)CO)c1I (centres undefined)	-17%	-11%
Cc1ccc(C(=O)O)c(OCC(=O)NCc2ccco2)c1	-2%	10%
CCC(=O)N1CCc2cc(Br)cc(S(=O)(=O)N3CCCC(C(=O)NCc4ccc(F)cc4)C3)c21 (centres undefined)	28%	404%[activator]
CCOc1ccc(C2C(=O)N(C3CCCCCC3)CC(=O)N2CCC2=CCCCC2)cc1OC (centres undefined)	-24%	7%
CC1CCCN(c2cc3c(cc2F)c(=O)c(S(=O)(=O)c2cccc(Cl)c2)cn3Cc2ccccc2)C1 (centres undefined)	-6%	2%
COc1ccc(C)cc1NC(=O)c1cc(S(=O)(=O)N2CCc3ccccc32)cn1C	-13%	21%
Cc1cccc2sc(N(CCCN(C)C)C(=O)c3ccc(Cl)s3)nc12	-6%	-4%
CCCSc1oc(-c2ccco2)nc1S(=O)(=O)c1ccc(Br)cc1	-2%	121%[activator]
N#Cc1ccccc1-c1ccc(COC(=O)c2ccco2)cc1	63%[activator]	6%
Cc1ccc(CCNC(=O)CCSCc2ccc(Cl)cc2)cc1	-18%	-16%
CCOc1cc(C#N)c(NC(=O)c2ccc(OC)c(S(=O)(=O)N(CC)CC)c2)cc1OCC	-13%	15%
Cc1ccc(CNS(=O)(=O)c2c(C)nc3sc(C)cn3c2=O)cc1	-18%	-23%
COC(=O)c1c(SC)nc2ccccc2c1OCc1cc(C)ccc1C	1%	2%
Cc1ccc(-c2nc3n(n2)C(=O)CC(c2ccc(C)cc2)S3)cc1 (centres undefined)	4%	-9%
O=C(CCn1nc(-c2ccc(Cl)cc2)c2ccccc2c1=O)N1CCOCC1	-13%	-7%
COc1cccc([C@H]2Nc3ccc(S(=O)(=O)Nc4cc(C)ccc4C)cc3[C@H]3C=CC[C@H]32)c1	-5%	38%[activator]
O=S1(=O)C[C@H](NC2CCCC2)[C@@H](S(=O)(=O)c2ccccc2)C1	16%	-1%
COc1ccc(OC)c(NC(=O)CCCc2nnc3n(C(C)C)c(=O)c4sccc4n23)c1	5%	-6%
COc1cccc(C(=O)Nc2cccc(-c3nc4ncccn4c3C)c2)c1	66%[activator]	-16%
O=C(COc1ncnc2ccccc12)N(Cc1ccccc1)Cc1ccccc1	-7%	12%
Cc1cc(C(=O)Cn2cnc3c2c(=O)n(C)c(=O)n3C)c(C)n1CC1CCCO1 (centres undefined)	12%	1%
CCCCN(CC)C(=O)CCNC(=O)Cn1cnc2sc3c(c2c1=O)CCCC3	-4%	-10%
COc1ccc(-n2c(=O)c3sc4ccccc4c3n(CC(=O)NC3CCCCC3)c2=O)cc1	-4%	2%
N#Cc1ccc(NCCNc2cccc3ccccc23)nc1	23%	-9%[1.06 µM]
Cc1ccnc(NC(=O)Cc2ccc(Cl)cc2Cl)c1	0%	19%
CCc1cccc2c(C(=O)COC(=O)c3cccc(C)c3)c[nH]c12	119%[activator]	-1%
Cn1nc(C(=O)NCc2ccccc2Cl)c2ccccc2c1=O	-4%	21%
CCc1cccc(C)c1NC(=O)c1cc(S(=O)(=O)N(C)Cc2ccccc2)ccc1F	?	?
Next part.
SMILES	2A firefly	2A Renilla
Cc1ccc(CNCC(=O)O)cc1	1%	6%
O=C(Nc1ccc(F)c(Cl)c1)C1CCCN(c2ncnc3onc(-c4ccc(F)cc4)c23)C1 (centres undefined)	24%&-1%	0%&-10%
COc1ccc(-c2cn(-c3ccc(C)cc3)c(S(=O)(=O)CC(=O)Nc3ccc(F)cc3)n2)cc1	272%[activator]	88%[activator]
COc1cccc2cc(S(=O)(=O)c3cc(F)cc(F)c3)c(=O)oc12	-4%	-5%
CCc1ccc(NC(=O)C2CCCN(S(=O)(=O)c3ccc4[nH]c(=O)ccc4c3)C2)cc1 (centres undefined)	-9%	-7%
O=C(CSc1nc2ccccc2o1)Nc1cc(Cl)cc(Cl)c1	-12%	?
O=C(NCc1ccc(Cl)cc1)C(=O)NCC(c1cccnc1)N1CCN(c2ccccc2)CC1 (centres undefined)	-8%	-2%
CCc1ccc(C(=O)COC(=O)/C(=C\c2ccccc2)NC(C)=O)cc1	25%	-7%
CSc1ncc(C(=O)Nc2cc(Cl)ccc2C)c(-c2ccccc2)n1	14%	4%
COc1ccc(-c2cc(C(=O)N(Cc3ccc(Cl)cc3)Cc3ccco3)no2)cc1	36%[activator]	105%[activator]
COC(=O)c1ccc(C(=O)Oc2ccc(C(C)=O)cc2)cc1	-6%	-5%
CCc1nn(CC(=O)N2CCN(c3cccc(Cl)c3)CC2)c(=O)c2cc3sccc3n12	-20%	-9%
COc1cc(-c2nc3ccc(Cl)cn3c2Nc2ccc3c(c2)OCO3)cc(OC)c1O	50%[activator]	52%[activator]
COc1ccc(S(=O)(=O)c2c(Nc3c(C)cccc3C)sc(C(=O)c3ccc4c(c3)OCO4)c2N)cc1	-3%	206%[activator]
CCC(C)NC(=O)c1oc2ccccc2c1CSc1nnc(C)s1 (centres undefined)	5%	27%
N#C/C(=C/c1ccc(OC(F)F)cc1)C(=O)Nc1cc(Cl)ccc1Cl	1%	45%[activator]
CCn1cnc2c1c(=O)n(CC(=O)NC(C)c1ccco1)c(=O)n2Cc1ccccc1 (centres undefined)	1%	4%
N#CC1=C(N)n2ncnc2NC1c1ccc(Cl)cc1Cl (centres undefined)	0%	-8%
Cn1c(Oc2ccc(Cl)c(Cl)c2)c(C#N)c(=O)n(C)c1=O	0%	-10%
COc1ccc(CNC(=O)Cn2c(=O)nc(-c3ccccc3)c3ccccc32)cc1OC	-19%	-3%
Cc1nc2nc(SCC(=O)O)nn2c(C)c1Cc1c(F)cccc1Cl	-20%	-12%
Nc1nccnc1C(=O)NCc1ccccc1F	0%	17%
CCC12CN3CC(C)(CN(C1)C3c1c[nH]c3ccc(OC)cc13)C2=O (centres undefined)	21%&-14%	-4%&-22%
Cc1nc(-c2ccc(Cl)cc2)sc1C(=O)NC1C=CS(=O)(=O)C1 (centres undefined)	59%[activator]	?
O=C(Cn1c(NCc2ccccc2)nc2ccccc21)N1CCN(c2ccccc2)CC1	38%[activator]	-10%
O=c1[nH]nc(SCc2nc(-c3ccc(Cl)cc3)no2)n2nc(-c3ccco3)cc12	14%	-12%
N#Cc1ccccc1CCC(=O)Nc1cccc(/C=C/c2ccccn2)c1	63%[activator]	33%
N#CCC(=O)c1c[nH]c2ccccc12	-1%	-2%[1.06 µM]
CC(C)N(c1ccccc1)c1ccc(NC(=O)Cn2nc(C(=O)O)c3ccccc3c2=O)cc1	-12%	-26%
Cc1nnc2c3ccccc3nc(N3CCN(c4cccc(Cl)c4)CC3)n12	-13%	-12%
CCOc1c(Br)cc(C(=O)OCc2ccc(C#N)cc2)cc1OC	6%	16%
Cc1ccc(Cl)cc1N1CCN(C(=O)CCS(=O)(=O)c2cc(Br)cc3c2N(C(=O)C2CC2)CC3)CC1	-25%	-16%
CNC(=O)C1CCN(Cc2ncc(-c3ccccc3)o2)CC1	5%	-3%
CCc1cc2c(cc(C(=O)OC)n2Cc2nc(-c3ccc(C)cc3)oc2C)s1	16%	-6%
COc1ccc(CNC(=O)c2cc3cc(C)ccc3n2C)cc1	?	?
C/C(=N\NC(=O)c1cccc2ccccc12)c1ccc(Cl)s1	5%	10%
CC(=O)N1C(NC2CCCCC2)CC(C)N1c1ccccc1 (centres undefined)	11%	5%
Cc1cc2c(cc1S(=O)(=O)CCC(=O)Nc1ccc(OC(F)(F)F)cc1)OCC(=O)N2	6%	24%
CCc1ccc(CN2CCc3nc(N4CCN(c5ccccc5F)CC4)ncc3C2)cc1	-1%	-13%
CN1CCN(CCCNC(=O)C(=O)Nc2ccc3cc[nH]c3c2)CC1	74%[activator]	-13%
COc1cc2c(cc1OC)C(c1ccccc1)N(CC(=O)Nc1ccc(C(N)=O)cc1)CC2 (centres undefined)	-13%	-18%
Cc1ccc(C(=O)c2oc3ccccc3c2NC(=O)COc2ccccc2Cl)cc1	1%	-1%
CCOC(=O)C1CCCN(S(=O)(=O)c2ccc3c(c2)CCN3C(=O)CC)C1 (centres undefined)	-12%	7%
Cc1ccc2nc3c(cc(C(=O)NC4CCCCC4)c(=N)n3C(C)C)c(=O)n2c1	-13%	-2%
O=C(NC1(c2ccccc2)CCC1)c1ccccc1C(F)(F)F	-9%	6%
Cc1ccc(-c2nc3cc(Cl)ccc3o2)cc1NC(=O)COc1ccc(F)cc1	10%	-11%
CCc1ccc(-c2cn3c(n2)sc2cc(C(=O)NC4CCCCC4)ccc23)cc1	-2%	-8%
CCOc1ccc(/C=C/c2nc(C#N)c(N3CCN(C)CC3)o2)cc1	6%	4%
CCc1ccc(NS(=O)(=O)c2ccc3oc(=O)c4ncn(CC)c4c3c2)cc1	-8%	-14%
CCCCn1c(=O)[nH]c(=O)c2c1nc(-c1ccc(OCC#N)c(OC)c1)n2C	-6%	-1%
CCOP(=O)(NC(C)C)Oc1ccc(SC)c(C)c1 (centres undefined)	-11%[22.9 µM]	3%[114 µM]
CCCCOC(=O)Cn1nnc2sc(-c3ccccc3)cc2c1=O	11%	-1%

Screening data: PubChem BioAssay, National Center for Advancing Translational Sciences (NCATS)
